gsp ag: qHTS for Agonist of gsp, the Etiologic Mutation Responsible for Fibrous Dysplasia/McCune-Albright Syndrome: qHTS. gsp mutant cells, cAMP HTRF, 30 min; control for the full effect not named in the record. Potency, µM (highest dose often 76.9 µM), for the others: at the highest dose activation (cAMP increase), most hits filed as activators. 340,000 compounds, 0.13% hits. AID 624287, 2012; active = well fitted activation curve with a large enough effect; inconclusive = small, poorly fitted or top-dose-only effect, or another doubt; inactive = no such curve, though single readings can be large or run the other way; cell line not stated here;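 also: phosphodiesterase inhibitor Ro 20-1724 added with compounds to block cAMP breakdown; potency is read from the fitted curve at half-maximal effect; nearly all actives have a fitted effect of over 60% in size; about a fifth of the inactives were tested at one dose only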
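Cells stably selected in G418 were plated at 2000/well, grown 16-24 hr, then given compounds in DMSO with the PDE inhibitor […] (300 uM solution added) for 30 min at 37C; cAMP was read by HTRF.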
ClpP mod: qHTS Assay for Activators of ClpP; purified B. subtilis ClpP, FRET peptide cleavage, 20 min; Potency, µM (top dose mostly 57.5 µM), for the others: top-dose activity change, negative = active; ATP-dependent Clp protease proteolytic subunit (Bacillus subtilis (strain 168)), P80244; AID 651965, 2013; 340,000 compounds, 1.9% hits; active = well fitted falling curve with a large enough effect; inconclusive = small, poorly fitted or top-dose-only effect; inactive = no such curve, though single readings can be large or run the other way; also: potency is read from the fitted curve at half-maximal effect; the source files actives as falling curves though it sought activators and does not explain the sign; nearly all actives have a fitted effect of over 65% in size; many hits overshoot -100%
Target sequence (P80244 whole entry, looked up): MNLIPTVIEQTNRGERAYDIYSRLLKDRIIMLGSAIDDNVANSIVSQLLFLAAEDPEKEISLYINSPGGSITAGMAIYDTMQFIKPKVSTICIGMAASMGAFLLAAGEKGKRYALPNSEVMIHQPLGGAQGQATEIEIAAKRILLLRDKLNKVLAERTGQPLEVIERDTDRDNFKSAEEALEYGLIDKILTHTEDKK
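ClpP 10 microg/mL final, pH 8 Tris/KCl buffer with BSA, glycerol, Tween-20; compound pinned in; FRET-FV substrate; RT 20 min; Ex320/Em430; ΔFRET vs ADEP 5.8 microM, DMSO, no enzyme.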
gsp antag: qHTS for Antagonists of gsp, the Etiologic Mutation Responsible for Fibrous Dysplasia/McCune-Albright Syndrome: qHTS; gsp-mutant cells, cAMP HTRF, 30 min; control for the full effect not named in the record; AID 624288, 2012; 340,000 compounds, 0.4% hits; Potency, µM (series often up to 76.9 µM), without a hit: at the highest dose activity change, negative = inhibition, usual class: inhibitors; active = falling curve of any shape with a large fitted effect; inconclusive = falling curve, mostly with a smaller effect; inactive = flat or rising curve; cell line not stated here;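 also: intracellular cAMP measured with PDE inhibitor Ro 20-1724 present during compound exposure; potency is read from the fitted curve at half-maximal effect; % is scaled to controls: 0 for no effect and ±100 for the full control effect; nearly all actives have a fitted effect of over 65% in size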
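G418-selected cells were plated in DMEM/10% FBS for 16-24 h at 37C, then treated with compounds plus the PDE inhibitor […] (300 uM solution added) for 30 min at 37C. Intracellular cAMP was measured by HTRF after 30 min lysis at room temperature.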
CtBP-E1A blk: qHTS Assay for Inhibitors of the CtBP/E1A Interaction | activity change, % (concentration not given with the values) | 340,000 compounds, 0.49% hits | AlphaScreen GST-E1A/His-CtBP binding, 1536-well; active compounds read low; control for the full effect not named in the record | CtBP / adenovirus E1A interaction (AlphaScreen); in the data active means activity change below about -65%; inconclusive means about -30% to -65%; inactive means above about -30%; also: % is scaled to controls: 0 for no effect and ±100 for the full control effect
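Steps: dispense buffer (Tris pH 8.0, NaCl 300 mM, TCEP 1 mM, BSA, Tween 20); add 5X protein mix (GST-E1A, His-CtBP, 125 nM each); pin 23 nL compound; 2 h at 37 °C, dark; add 5X beads (50 ug/mL); 1 h; read.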
Sfp PPTase inh: qHTS Assay for Inhibitors of Bacillus subtilis Sfp phosphopantetheinyl transferase (PPTase). Potency, µM, for the others: max response, negative = inhibition, usual class: inhibitors. Biochemical Sfp PPTase activity, qHTS. 310,000 compounds, 3.5% hits. 4'-phosphopantetheinyl transferase ffp (Bacillus subtilis), Q9F4F7; active = well fitted inhibition curve with a large enough effect; inconclusive = small, poorly fitted or top-dose-only effect, or another doubt; inactive = no such curve, though single readings can be large or run the other way;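 also: the enzyme is Sfp with the accession as filed and its product quenches rhodamine fluorescence; potency is read from the fitted curve at half-maximal effect; 0% = enzyme reaction without inhibitor and -100% = no enzyme wells; top concentration of the series not given in the record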
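Reaction rates are the 30-min fluorescence difference (ex 525, em 598 nm) in wells containing 15 nM Sfp, 5 uM rhodamine-CoA and 12.5 uM BHQ-2-YbbR at pH 7.6 with 10 mM MgCl2.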
TRPV1 potentiator: HTS Assay for Compounds that Act as Potentiators of the Vanilloid Receptor 1; Transient receptor potential cation channel subfamily V member 1 (Homo sapiens), Q8NER1; TRPV1-expressing cells, Fluo-8 calcium influx, capsaicin EC20 potentiation; host cell line not named in the record; control for the full effect not named in the record; potentiation, % at 8.33 µM; 320,000 compounds, 0.02% hits; active means potentiation above 80%; inconclusive means 30% to 80%; inactive means below 30%; also: 0% is about no effect
Target sequence (Q8NER1 whole entry, looked up): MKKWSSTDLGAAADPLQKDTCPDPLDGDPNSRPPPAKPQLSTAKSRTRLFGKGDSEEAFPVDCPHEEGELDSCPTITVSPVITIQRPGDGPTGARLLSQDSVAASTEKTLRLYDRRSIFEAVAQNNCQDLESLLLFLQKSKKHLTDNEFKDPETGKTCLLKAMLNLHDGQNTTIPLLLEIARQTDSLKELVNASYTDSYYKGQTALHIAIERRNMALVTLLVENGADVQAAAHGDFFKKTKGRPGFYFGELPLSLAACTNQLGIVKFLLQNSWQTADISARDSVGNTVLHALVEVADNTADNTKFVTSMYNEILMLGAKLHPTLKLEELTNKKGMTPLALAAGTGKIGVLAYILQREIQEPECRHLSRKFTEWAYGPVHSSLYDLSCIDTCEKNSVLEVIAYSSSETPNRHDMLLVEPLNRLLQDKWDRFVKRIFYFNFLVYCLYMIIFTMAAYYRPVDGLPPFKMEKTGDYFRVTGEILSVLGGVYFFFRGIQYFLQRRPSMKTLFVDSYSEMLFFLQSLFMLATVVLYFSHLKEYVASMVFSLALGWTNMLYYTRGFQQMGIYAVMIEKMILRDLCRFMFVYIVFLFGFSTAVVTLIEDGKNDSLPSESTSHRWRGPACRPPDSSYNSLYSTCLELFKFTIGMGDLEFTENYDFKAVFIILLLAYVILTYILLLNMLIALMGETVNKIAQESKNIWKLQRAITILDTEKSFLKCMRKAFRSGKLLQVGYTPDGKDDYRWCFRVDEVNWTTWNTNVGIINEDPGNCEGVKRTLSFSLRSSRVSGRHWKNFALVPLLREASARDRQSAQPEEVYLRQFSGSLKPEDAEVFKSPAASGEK
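TRPV1-expressing cells were cultured overnight at 35.5C and loaded with Fluo-8 calcium dye for 40 to 90 min at room temperature. After a 10 s baseline, compound was added and calcium influx was read kinetically for 3 min (ex 480/em 520 nm).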
Menin-MLL FL inh: qHTS Assay for Inhibitors Targeting the Menin-MLL Interaction in MLL Related Leukemias: Competition With Fluorescein Labeled MLL-derived Peptide; 290,000 tested, under 10 active; Fluorescence polarization, fluorescein-MLL peptide displacement from menin; FP activity change, % at 61.4 µM; inconclusive = falling polarisation curve, or a change in total fluorescence; inactive = total fluorescence flat and polarisation flat or rising; no compound was filed as active; the % refers to the polarisation; negative = inhibition;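 also: % of control where 0% means no effect; inhibitors lower the polarisation; unlabelled MLL peptide was the positive control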
* = called active by the depositor; u = inconclusive; x = not tested or not shown; [ ] = another dose, or the depositor's remark.

SMILES | gsp ag | ClpP mod | gsp antag | CtBP-E1A blk | Sfp PPTase inh | TRPV1 potentiator | Menin-MLL FL inh
CCOC(=O)N1CCN(CC(=O)Nc2cc(OCC)ccc2OCC)CC1 | -23% | 0.8% | -13% | -1 | -1% | -27 | -1.7
CN1C(=O)CCS(=O)(=O)C1c1ccc(Cl)c(Cl)c1 (stereo not drawn) | -77%[inhibitor] | -4.7% | x | -6 | x | x | x
COc1ccc(/C=N/N2CCN(c3ccccc3OC)CC2)cc1Br | -14% | 1.2% | -11% | x | -8% | 5 | 1.2
Fc1ccc(C2=NNC(=NCc3ccccc3)SC2)cc1F | -51%[15.4 µM] | x | 4% | -14 | u | -7 | 15
Cc1c(NS(=O)(=O)c2cc(C(=O)NCc3cccnc3)ccc2Cl)c(=O)n(-c2ccccc2)n1C | 4% | x | 1% | 6 | x | x | x
O=C(NCc1ccco1)c1cc2cc(Br)ccc2o1 | -18% | 1.2% | -10% | -11 | 20µM* | -16 | x
CCCc1ccc2oc(C(=O)N3CCC(C(N)=O)(N4CCCCC4)CC3)c(C)c2c1 | u | 1.3% | -4% | 2 | 0% | 12 | -1.3
CC(C)CN(C(=O)COC(=O)c1ccccn1)c1c(N)n(Cc2ccccc2)c(=O)[nH]c1=O | -10%[15.4 µM] | -1.9% | 9% | -28 | x | -3 | x
CC(C(=O)N1CCOCC1)(c1ccccc1)c1ccccc1 | 1% | -2.4% | 2% | -7 | -1% | -2 | -4.7
CC12CCC(=O)N1C(C(=O)NCCc1ccccc1)CS2 (stereo not drawn) | -30%[inhibitor] | 1.7% | 16% | 2 | 21% | -2 | x
O=C(NC1CCc2ccccc21)c1cc(COc2c(F)cccc2F)on1 (stereo not drawn) | u | 2.6% | 2% | 9 | -9% | -2 | 1.4
COc1ccc2oc(C(=O)OCC(=O)NC(=O)c3ccccc3)c(C)c2c1 | 8% | 3.2% | -8% | -1 | 6% | 8 | 2.4
Cc1ccc2c(NC(=O)c3ccc(Br)o3)cccc2n1 | -31%[inhibitor] | -1.6% | 2% | -2 | 5% | -8 | x
COc1cccc2c1CCC1=CC(=O)CCC12C (stereo not drawn) | -14%[15.4 µM] | u | 4% | 0 | x | x | x
CC(=O)Nc1ccc(S(=O)(=O)NCCC(=O)OCC(=O)NNC(=O)c2ccccc2)cc1 | -14%[15.4 µM] | x | 9% | 0 | x | 12 | x
COc1ccc(C2CC(c3ccc(Br)cc3)=NN2C(=O)CN2CCCC2)cc1 (stereo not drawn) | 12%[15.4 µM] | x | 3% | -20 | 10% | -5 | 2.3
c1ccc(Cc2nnc3sc(-c4ccco4)nn23)cc1 | -1% | 1.8% | -12% | -2 | -5% | x | 7.9
O=C(CN1C(=O)COc2ccccc21)NCCN1CCCC1 | 8% | -0.6% | 6% | x | 12% | 8 | -0.2
O=C(N/N=C/c1ccc(OC(=O)c2ccccc2)cc1)c1ccc(CN2CCOCC2)cc1 | -72%[inhibitor] | 1.2% | -6% | -11 | 6% | -12 | 1.9
Cc1cccc(C)c1-n1c(C)nn(CCOc2ccccc2)c1=O | -7%[15.4 µM] | x | -47% | -7 | 11% | -6 | 2.4
O=C(CN1CCC(C(O)(c2ccccc2)c2ccccc2)CC1)Nc1ccccc1 | 2% | -0.8% | 5% | -3 | 8% | u | 4.2
CCC(CC)c1nc(C#N)c(NC(C)c2ccccc2)o1 (stereo not drawn) | -23% | -1.6% | 13% | 1 | 9% | -10 | -2.4
Cc1ccc(Cl)cc1NC(=O)CCC(=O)O | -21% | x | 12% | 8 | 23% | -5 | -3.2
CCCCOC(=O)Nc1nnc(-c2ccccc2OC)s1 | -2% | u | 8% | 11 | 6% | -8 | 3.7
COc1ccc2nc(NC(=O)C3CCCO3)sc2c1 (stereo not drawn) | -8% | 0.4% | -5% | 2 | 15% | -7 | -2.0
Cc1cccc(-n2ncc3c2CCCC3NC(=O)c2ccc[n+]([O-])c2)c1C (stereo not drawn) | 30% | -3.0% | 9% | -1 | 8% | 5 | -0.7
Cc1cc(NC(=O)c2ccc3c(c2)C(=O)N(C)C3=O)no1 | 8% | 0.5% | -3% | 3 | 2% | -3 | 0.2
O=C1CN(C(=O)Cn2ncc(Cl)c(Cl)c2=O)c2ccccc2N1 | -28%[15.4 µM] | x | 0% | 26 | 6% | -4 | -1.8
ON=C1c2ccccc2-c2ccc(Br)cc21 | 9% | 1.0% | -4% | 1 | x | x | x
CN1CCc2c(n(CC(O)CNCc3ccccc3)c3ccccc23)C1=O (stereo not drawn) | -60%[inhibitor] | -27% | 9% | x | -14% | -10 | -5.9
CC(C)CNc1nc(N)c([N+](=O)[O-])c(NCc2ccccc2)n1 | -4%[15.4 µM] | -0.6% | 12% | -6 | 3% | -10 | -2.2
O=C(NCc1ccccc1F)C1CCC(=O)N(Cc2ccc(Cl)cc2)C1 (stereo not drawn) | -47%[inhibitor] | 0.5% | 13% | 6 | 13% | -6 | x
Nn1c(SCc2ccc(Br)cc2)nnc1-c1cccnc1 | 1% | 0.7% | -1% | x | 11% | -5 | -1.8
CCN(CC)C(=O)C1CCCN(Cc2cccc(Oc3ccccc3)c2)C1 (stereo not drawn) | -13% | 1.3% | 4% | x | 0% | -15 | -1.2
COc1ccc2c(c1OC)C(=O)N1C2SC[C@H]1C(=O)NCCC(C)C (stereo partly drawn) | u | -5.0% | 2% | -23 | -1% | -3 | -1.5
O=C(NCc1ccco1)C(c1ccccc1)N(C(=O)Cc1cccs1)c1ccccc1F (stereo not drawn) | 0% | 2.4% | u | -6 | -3% | -4 | -0.2
Cc1[nH]nc(SCC(=O)NCCc2ccccc2)c1[N+](=O)[O-] | -28% | 1.9% | 1% | 14 | 9% | 5 | 0.0
NC(=O)c1ccccc1NC(=O)CSC1=NCCS1 | -8% | -1.4% | 8% | 8 | -18% | 1 | 1.0
CCCCn1c(N)c(N(CCOC)C(=O)COC(=O)COc2cc(C)c(Cl)cc2C(C)C)c(=O)[nH]c1=O | 17%[15.4 µM] | x | -4% | 1 | x | 7 | x
C/C(=N\Nc1nc2ccccc2s1)c1ccc2c(c1)OCO2 | -56%[inhibitor] | -2.6% | -2% | x | -28% | -17 | -0.3
COc1cccc(OCC(O)CO)c1 (stereo not drawn) | u | 1.2% | 13% | 0 | 29% | -3 | 1.9
O=C(Nc1ccccc1C(=O)N1CCCCCC1)c1ccccc1 | -22% | x | 7% | 9 | 14% | x | 3.8
CC(=O)c1ccc(NC(=O)CCc2nnc3ccc(N4CCCC4)nn23)cc1 | 0% | -0.4% | -8% | -3 | 12% | -3 | x
CCOc1cc(N2CCOCC2)c(OCC)cc1NCC(=O)N1CCN(Cc2ccccc2)CC1 | -5%[15.4 µM] | x | 4% | -14 | 56µM* | -5 | 1.7
Cc1ccnc(NC(=O)CCC(=O)N(CC(=O)NC2CCCCC2)CC2CCCO2)c1 (stereo not drawn) | -10% | 3.3% | -5%[15.4 µM] | 9 | 14% | -2 | 0.8
CC(C)(C)n1nc2c(c1NC(=O)c1ccc([N+](=O)[O-])cc1)CS(=O)(=O)C2 | -4% | -1.5% | -8% | -15 | 11% | -10 | 1.4
CN(CC(=O)NC1CCCCC1)S(=O)(=O)c1ccc(Br)s1 | 7% | -2.3% | 2% | 1 | 6% | -3 | 3.0
Cc1cc(C)n(-c2cc(N3CCN(C(=O)c4ccccc4C)CC3)ccc2[N+](=O)[O-])n1 | -30% | -0.6% | -18% | -2 | x | x | x

The last 2 compounds of the section before come first, to join the parts.
SMILES | gsp ag | ClpP mod | gsp antag | CtBP-E1A blk | Sfp PPTase inh | TRPV1 potentiator | Menin-MLL FL inh
CN(CC(=O)NC1CCCCC1)S(=O)(=O)c1ccc(Br)s1 | 7% | -2.3% | 2% | 1 | 6% | -3 | 3.0
Cc1cc(C)n(-c2cc(N3CCN(C(=O)c4ccccc4C)CC3)ccc2[N+](=O)[O-])n1 | -30% | -0.6% | -18% | -2 | x | x | x
Cc1ccccc1C(=O)Nc1cccc(NC(=O)Cn2cnc3c(=O)n(C)c(=O)n(C)c32)c1 | u | -1.1% | 14% | -8 | 10% | 1 | -1.2
CSc1ccccc1NC(=O)Cc1ccccc1[N+](=O)[O-] | -30% | -4.6% | 3% | -22 | 3% | -2 | -0.7
O=C(CN(c1ccccc1)S(=O)(=O)c1ccc(F)cc1)NCc1cccs1 | -37%[inhibitor] | 2.4% | u | 5 | x | -11 | x
O=C(CCc1nc2ccccc2c(=O)[nH]1)OCC(=O)N1CCN(S(=O)(=O)c2ccccc2)CC1 | 0% | 0.2% | 7% | 7 | 17% | 17 | 0.7
O=[N+]([O-])c1ccc(Cl)c(S(=O)(=O)/N=C(/Nc2cccnc2)c2ccccc2)c1 | -4%[15.4 µM] | -0.2% | -6% | 0 | x | x | x
Cc1cc(OCC(=O)Nc2cnn(CCCC(=O)O)c2)ccc1[N+](=O)[O-] | -69%[inhibitor] | x | 17% | -6 | -3% | 2 | -3.4
Cc1ccc(N/C(N)=N/c2nc(CSc3nnc(N)s3)cc(=O)[nH]2)cc1 | -54%[inhibitor] | -1.5% | 10% | -13 | 16% | -2 | -0.8
CCOC(=O)c1c(NC(=O)COC(=O)c2cc(OC)c(OC)cc2[N+](=O)[O-])sc(C)c1CC | 0%[15.4 µM] | -2.7% | -12% | -23 | -24% | 13 | 8.8
COc1ccc(-n2cc(CNCCc3ncc(C)[nH]3)c(-c3ccccc3Cl)n2)cc1 | -2% | x | 9% | -1 | -5% | -13 | 0.1
COc1ccc(OC)c(/C=N/NC(=O)c2cc[n+](CC(=O)c3ccccc3)cc2)c1 | 15% | 1.8% | -7% | -12 | 3% | 9 | 4.0
